# ClpP mod – qHTS Assay for Activators of ClpP | ATP-dependent Clp protease proteolytic subunit (Bacillus subtilis (strain 168)), P80244 | purified B. subtilis ClpP, FRET peptide cleavage, 20 min | Potency, µM (highest dose often 57.5 µM), inactives show at the highest dose activity change, negative = active | 340,000 tested, 1.9% active; active = well fitted falling curve with a large enough effect; inconclusive = small, poorly fitted or top-dose-only effect; inactive = no such curve, though single readings can be large or run the other way; also: potency is read from the fitted curve at half-maximal effect; the source files actives as falling curves though it sought activators and does not explain the sign; nearly all actives have a fitted effect of over 65% in size; many hits overshoot -100%
# Target sequence (P80244 whole entry, looked up): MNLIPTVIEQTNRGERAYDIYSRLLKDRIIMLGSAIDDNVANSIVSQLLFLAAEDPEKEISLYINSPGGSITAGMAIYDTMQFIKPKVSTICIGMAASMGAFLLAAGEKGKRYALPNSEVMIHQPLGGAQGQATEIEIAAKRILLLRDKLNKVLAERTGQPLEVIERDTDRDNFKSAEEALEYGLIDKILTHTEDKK
#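 FRET quenching reversal measured ClpP activation: 10 microg/mL B. subtilis ClpP at pH 8 with the FRET-FV decapeptide, read at 430 nm after 320 nm excitation. The 20-min minus 0-min signal was scaled between DMSO/no-enzyme wells and ADEP (5.8 microM final).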
# TRPML1 blocker – blocks the human TRPML1 channel; Q9GZU1; TRPML1-inducible cells, Ca2+ dye fluorescence, FDSS; active compounds read low; inhibition of EC80 agonist-evoked calcium signal; activity change, negative = inhibition, % (no concentration beside the values); 390,000 tested, 0.02% active; AID 624415; in the data active means activity change below about -50%; inconclusive means about -30% to -50%; inactive means above about -30%;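 also: stimulus is agonist 54-4 at its EC80 concentration; % is scaled to controls: 0 for no effect and ±100 for the full control effect; compound concentration not given in the record; the text of the record puts the active cut at -80%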
# Target sequence (Q9GZU1 whole entry, looked up): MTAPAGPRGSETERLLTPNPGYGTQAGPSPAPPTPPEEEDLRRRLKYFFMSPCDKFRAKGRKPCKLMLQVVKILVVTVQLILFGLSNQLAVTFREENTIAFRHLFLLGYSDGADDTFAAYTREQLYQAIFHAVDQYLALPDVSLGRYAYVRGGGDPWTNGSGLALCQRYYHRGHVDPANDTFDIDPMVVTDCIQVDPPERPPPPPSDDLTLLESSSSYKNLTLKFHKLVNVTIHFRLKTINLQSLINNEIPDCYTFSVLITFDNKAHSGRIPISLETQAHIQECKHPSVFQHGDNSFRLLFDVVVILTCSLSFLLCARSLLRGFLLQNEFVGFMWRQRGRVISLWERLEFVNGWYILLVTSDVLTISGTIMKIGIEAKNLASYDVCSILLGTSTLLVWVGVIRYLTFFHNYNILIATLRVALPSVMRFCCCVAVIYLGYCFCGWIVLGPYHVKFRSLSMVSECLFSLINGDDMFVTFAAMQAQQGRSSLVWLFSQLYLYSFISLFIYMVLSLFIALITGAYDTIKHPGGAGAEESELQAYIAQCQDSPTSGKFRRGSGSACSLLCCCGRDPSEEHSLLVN
#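 Tet-induced TRPML1-DL cells loaded with Ca8 no-wash calcium dye were read kinetically on FDSS. Compound addition was followed by EC80 agonist 54-4 (4 uM final); inhibition was read over 110 s.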
# gsp ag – agonists of gsp mutant (McCune-Albright syndrome). gsp mutant cells, cAMP HTRF, 30 min; control for the full effect not named in the record. Potency, µM (doses to about 76.9 µM), without a hit: at the top dose activation (cAMP increase), most hits filed as activators. 340,000 tested, 0.13% active. AID 624287; active = well fitted activation curve with a large enough effect; inconclusive = small, poorly fitted or top-dose-only effect, or another doubt; inactive = no such curve, though single readings can be large or run the other way; cell line not stated here;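 also: phosphodiesterase inhibitor Ro 20-1724 added with compounds to block cAMP breakdown; potency is read from the fitted curve at half-maximal effect; nearly all actives have a fitted effect of over 60% in size; about a fifth of the inactives were tested at one dose only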
#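 Cells in DMEM/10% FBS with G418 were pretreated with compounds in DMSO plus […] (300 uM stock) for 30 min at 37C. cAMP was measured by HTRF (cAMP-d2 plus anti-cAMP antibody-K) after 30 min at room temperature.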
# gsp antag – gsp mutant antagonism; AID 624288; 340,000 tested, 0.4% active; Potency, µM (series often up to 76.9 µM), for the others: top-dose activity change, negative = inhibition, hits mostly inhibitors; gsp-mutant cells, cAMP HTRF, 30 min; control for the full effect not named in the record; active = falling curve of any shape with a large fitted effect; inconclusive = falling curve, mostly with a smaller effect; inactive = flat or rising curve; cell line not stated here;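 also: intracellular cAMP measured with PDE inhibitor Ro 20-1724 present during compound exposure; potency is read from the fitted curve at half-maximal effect; % is scaled to controls: 0 for no effect and ±100 for the full control effect; nearly all actives have a fitted effect of over 65% in size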
#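 HTRF cAMP read-out (cAMP-d2 plus anti-cAMP antibody-K in lysis buffer, 30 min RT). Before lysis, cells are exposed to compounds with […] for 30 min at 37C in DPBS containing Ca/Mg, BSA and Tween 20.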
# TRPML1 agonist – activates the human TRPML1 channel | Q9GZU1 | TRPML1-expressing cells, Ca2+ dye fluorescence, FDSS; host cell line not named in the record; reference of the full effect not given here | activation, % (concentration not given with the values) | 410,000 tested, 0.12% active; in the data active = activation above about 50%; inconclusive = about 30% to 50%; inactive = below about 30%; also: 0% is about no effect; the text of the record puts the active cut at 80%
#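 Calcium fluorescence on an FDSS kinetic reader gave the read-out. Tet-induced TRPML1-DL cells were plated overnight, dye-loaded (Ca8 with quencher, 45-90 min, room temperature, dark), then read 110 s after compound addition, and again 110 s after 4uM final 54-4 (EC80).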
# Menin-MLL FL inh – inhibitors of human menin-MLL interaction, wild-type MLL peptide. Fluorescence polarization, fluorescein-MLL peptide displacement from menin. FP activity change, % at 61.4 µM. 290,000 tested, under 10 active. AID 1766; inconclusive = falling polarisation curve, or a change in total fluorescence; inactive = total fluorescence flat and polarisation flat or rising; no compound was filed as active; the % refers to the polarisation; negative = inhibition;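 also: % of control where 0% means no effect; inhibitors lower the polarisation; unlabelled MLL peptide was the positive control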
# An asterisk follows results filed as active; ? = inconclusive; · = no result given; & = joins results of further samples; [ ] = another dose, or the depositor's remark.
SMILES,ClpP mod,TRPML1 blocker,gsp ag,gsp antag,TRPML1 agonist,Menin-MLL FL inh
Cc1ccc(-n2nc3ccc(NC(=O)/C=C/c4ccco4)cc3n2)cc1C,-21.2%,6.4,-6.0%,0.2%,0.2,5.2
CCOc1cccc(CN2CCC(Oc3ccc(C(=O)NCc4ccccn4)cc3)CC2)c1,-0.3%,-5.2,4.1%,-23.3%,-0.4,-1.0
Cc1nn(CCC(=O)Nc2cccc(C#N)c2)c(C)c1S(=O)(=O)N1CCCCC1,1.0%&-1.0%,-1.5&-23.4,0.1%,-9.3%,-0.9&3.6,0.8
CS(=O)(=O)c1cccc(C(=O)Nc2ccc(S(=O)(=O)N3CCCCC3)cc2)c1,1.0%,-4.5,2.6%,10.8%,0.4,·
Cc1cc(C)c(S(=O)(=O)N2CCCOC2CNC(=O)C(=O)NCc2cccnc2)c(C)c1 (centres undefined),·,?,6.4%[15.4 µM],9.1%,-0.4,-7.2
N#Cc1c(C(F)(F)F)cc(-c2ccccc2)nc1SCC(=O)N1CCOCC1,-3.5%,-0.5,-4.7%,6.1%,0.1,0.2
O=C(O)C1C2C=CC(O2)C1C(=O)NCCC1=CCCCC1 (centres undefined),0.2%,0.3,24.6%,-4.2%,-0.4,0.1
Cc1ccc(C)c(NC(=O)CN(C)C(=O)c2cccc(-n3cccc3)c2)c1,-8.8%,28.6,18.6%[15.4 µM],-3.5%,0.4,·
COc1cc(OC)c(NC(=O)c2c3c(nn2C)-c2ccccc2SC3)cc1Cl,?,63.2,·,·,0.4,·
O=C(CNC(=O)c1ccccc1F)NCc1ccccn1,-3.5%,0.3,0.2%,14.6%,-1.4,·
Cc1ccc(NC(=O)CCNS(=O)(=O)c2ccc3[nH]c(=O)oc3c2)cc1N(C)C,1.3%,15.9,-9.1%,2.9%,-0.8,4.3
Cc1cccc(NC(=O)c2ccc3ccccc3n2)c1C,-3.1%,4.3,0.9%,-4.9%,1.2,0.1
Cc1ccc(NC(=O)CSc2nccn2Cc2ccco2)cc1,-0.7%,-10.0,-33.4%,4.9%,1.0,·
O=c1cc(CO)oc(CN2CCCC2)c1O,-0.1%,22.3,2.9%,8.7%,0.9,-1.0
CC(C)(C)NC(=O)CCN(/N=C/c1ccc([N+](=O)[O-])o1)C1=NS(=O)(=O)c2ccccc21,-1.7%,-0.2,7.4%,-4.8%,1.2,10.1
CCOC(=O)C1(C)CCCN(C(=O)c2ccc3c(c2)OCO3)C1 (centres undefined),0.4%,7.3,·,·,-0.7,·
CCCCCSc1nc2c(cnn2-c2ccc(F)cc2)c(=O)[nH]1,·,-12.0,-51.1%[inhibitor],7.1%,-0.4,7.7
O=C(Nc1cccc(S(=O)(=O)NC2=NCCCCC2)c1)c1cc(-c2ccccc2Cl)nc2ccccc12,-4.4%,5.9,0.0%,1.1%,0.9,-0.2
CC(C)Nc1nc(NC(C)C)nc(C(N)=O)n1,-3.3%,-3.9,-29.5%,13.2%,-0.1,0.8
C/C=C/c1ccc(OCC(=O)Nc2cc(OC)c(OC)c(OC)c2)c(OC)c1,-21.2%,-13.1,-5.6%[15.4 µM],-32.4%,1.6,-2.2
O=C(COC(=O)c1ccc(S(=O)(=O)N2CCOCC2)cc1)Nc1ccccc1F,0.7%,-10.6,-232.5%[inhibitor],1.0%,0.8,·
CCOC(=O)Cn1nc(C)n(-c2c(C)cccc2C)c1=O,·,1.0,-9.6%[15.4 µM],10.5%,-0.7,0.7
COc1cc(Cc2nccc3cc(OC)c(OC)cc23)c(S(=O)(=O)O)cc1OC,·,-12.5,2.1%,3.1%,0.4,0.4
Cc1ccccc1C(=O)Nc1cc(S(=O)(=O)N2CCOCC2)ccc1N1CCN(C)CC1,0.3%,-5.2,12.4%,8.5%,0.6,·
CC1CC(C)CN(CCCNC(=O)C2CCCN(c3ncnc4c3nc3n4CCCCC3)C2)C1 (centres undefined),·,10.8,5.9%[15.4 µM],7.4%,-0.6,-4.7
O=C(c1cccc(N2C(=O)C3C4C=CC(C4)C3C2=O)c1)N1CCN(c2ccccc2F)CC1 (centres undefined),0.0%,-2.2,22.9%,2.2%,-0.9,·
O=C1CC(c2nc(-c3ccccc3)no2)CN1c1ccccc1 (centres undefined),0.9%,20.1,·,·,0.7,·
COc1ccccc1S(=O)(=O)Nc1ccc2nc(C)sc2c1,-2.1%,-19.6,-14.8%,-9.8%,-0.3,·
CC1=CC2=NC(=O)/C(=C\c3cccn3CCOc3ccccc3C)C(=N)N2O1,-0.7%,1.0,18.1%,-22.3%,2.0,-0.1
CN(C)c1oc(COc2ccccc2F)nc1C#N,0.4%,18.7,10.8%,10.6%,-0.7,5.1
S=C(Nc1cccc(Cl)c1)N1CCN(c2ccccn2)CC1,-10.5%,-25.5,-49.2%[inhibitor],-11.3%,1.0,-11.2
O=C(c1ccco1)N1CCN(C(=O)C2CC(c3ccccc3F)=NO2)CC1 (centres undefined),-1.1%,14.7,24.2%,-6.6%,-0.3,2.2
COCCNC(=O)C(=O)NCC(c1cccnc1)N1CCN(c2ccccc2OC)CC1 (centres undefined),-0.9%,-28.7,·,·,0.6,·
CN(C)CCCN(C(=O)c1ccc(S(=O)(=O)N2CCCC2)cc1)c1nc2c(F)cc(F)cc2s1,·,12.4,7.6%[15.4 µM],6.7%,-0.3,·
CCn1cc(C(=O)NCc2ccccc2)c(=O)c2cc(S(=O)(=O)N3CCCCCC3)ccc21,1.9%,-11.8,·,·,-0.2,·
O=C(CCc1ccc(S(=O)(=O)N2CCOCC2)cc1)Nc1nccs1,0.1%,8.5,-39.1%[inhibitor],7.2%,-0.6,-0.7
O=C1NC(c2ccccc2)=C(c2ccccc2)C1=O,-0.9%,2.7,-16.8%,-4.2%,0.8,1.4
CCOC(=O)c1[nH]c2ccc(OC)cc2c1NC(=O)CN1CCc2ccccc2C1,15.8µM*,53.6,14.0%,-0.7%,0.5,-1.7
CCc1ccc(NC(=O)c2ccnc(C(C)(C)C)c2)cc1,-0.3%,-1.9,-13.4%,-3.7%,2.3,-3.8
Cc1ccc(/C=C/S(=O)(=O)NCC(=O)OCC(=O)Nc2ccc(C(N)=O)cc2)cc1,0.7%,-9.2,-1.8%[15.4 µM],3.3%,0.6,·
Cc1ccc(CSc2nnc(-c3cccc(S(=O)(=O)N4CCOCC4)c3)n2CC(C)C)cc1,-4.5%,21.1,-51.2%[inhibitor],-12.1%,0.4,-0.5
COc1ccc(CCNc2ccc(C(CC(N)=O)NC(=O)Cc3cccc4ccccc34)cc2[N+](=O)[O-])cc1 (centres undefined),-2.1%,2.0,·,-1.6%,-0.2,0.2
COc1cccc(CN2CCNC(=O)C2CC(=O)NCC2CCOCC2)c1 (centres undefined),-4.8%,-17.5,-49.2%[inhibitor],2.4%,-0.5,·
COc1ccc(N2CCN(C(=O)c3ccccc3NC(=O)C3=C(C)OCCS3)CC2)cc1,-0.8%,0.9,-2.8%,-3.8%,-0.5,8.4
CCN(CC)C(=O)Cn1cc(S(=O)(=O)CC(=O)Nc2cc(C)on2)c2ccccc21,1.2%,1.1,3.8%[15.4 µM],6.3%,-0.1,·
C#CCOCCOCCOCCNc1nc(N2CCN(C(=O)CCCCCCCCCCNC(=O)Cn3cc(CCCCCN)nn3)CC2)nc(N2CCN(C(=O)CCCCCCCCCCNC(=O)[C@@H](CCC(=O)O)n3cc(CCCCCN)nn3)CC2)n1,2.0%,-17.8,-28.3%,4.2%,0.2,·
Cc1nc(-n2nc(C)c(Cc3ccccc3Cl)c2C)sc1C(=O)Nc1ccccc1F,0.4%,-3.3,·,·,-0.3,·
CC(=O)Nc1ccccc1C(=O)C(=O)Nc1cccc(F)c1,0.4%,-0.2,13.1%,7.4%,-0.2,·
Cc1cc(C)c(NC(=O)c2oc3ccccc3c2COc2ccccc2)c(C)c1,-1.5%,27.3,-28.5%,-4.0%,1.7,8.2
CN(C(=O)C1CCCN1S(=O)(=O)c1ccc(Cl)cc1)c1ccccc1 (centres undefined),1.1%,7.3,-2.1%,4.9%,-0.4,·
CCc1ccc(OCCNc2cc(N3CCNC(C)C3)ccc2[N+](=O)[O-])cc1 (centres undefined),0.1%,3.1,1.4%,5.8%,-0.3,·
Cn1c(C(=O)NC2CC2)cc(=O)n(C)c1=O,·,-20.8,-3.8%[15.4 µM],9.2%,0.4,-4.1
Cc1ccc(-c2noc(CSc3nnc(-c4ccncc4)n3-c3ccc(F)cc3)n2)cc1,1.4%,-5.9,-4.3%,-11.1%,0.2,5.1
Cc1ccc(N(CC(=O)NC2CCCCC2)S(=O)(=O)c2cccs2)cc1,0.3%,-14.9,-4.6%,0.0%,4.4,·
CCN(CC(=O)Nc1ccc(NC(C)=O)cc1)C(=O)c1ccc2ccccc2c1,-2.8%,-9.1,-42.4%,2.0%,-0.3,·
Fc1ccc(/C=N/Nc2ncnc3nc[nH]c23)cc1F,0.2%,11.7,?,4.0%,-0.6,1.6
Oc1cccnc1Sc1cccc(C(F)(F)F)c1,·,-13.7,-22.4%,6.8%,2.0,·
O=C(NCc1cccs1)C1CCCN(S(=O)(=O)c2cccc3cccnc23)C1 (centres undefined),2.0%,-14.4,-2.4%,-7.0%,0.8,4.1
COC(=O)c1sc(NC(=O)COc2ccccc2C)nc1C,·,19.0,-9.5%[15.4 µM],8.0%,2.1,-2.4
CC(C)(C)CC(C)(C)NC1=CC(=O)OC12CCCCC2,0.0%,-3.6,-36.1%[inhibitor],-6.7%,3.9,-3.1
O=C(Cc1ccccc1[N+](=O)[O-])NCCSCc1c(F)cccc1Cl,0.3%,3.0,23.2%,-8.0%,-1.0,1.3
O=[N+]([O-])c1cc(C(F)(F)F)ccc1NCCCCNS(=O)(=O)c1ccc(Cl)cc1,2.0%,5.7,-14.1%[15.4 µM],-34.9%,0.0,11.3
Cc1ccc(CSCc2nnc(SCC(=O)N3CCN(c4ccccc4)CC3)n2C)cc1,-2.4%,-5.4,-10.2%,-6.0%,0.2,0.7

# 3 entries picked at random from the list so far:
SMILES,ClpP mod,TRPML1 blocker,gsp ag,gsp antag,TRPML1 agonist,Menin-MLL FL inh
Cc1nn(CCC(=O)Nc2cccc(C#N)c2)c(C)c1S(=O)(=O)N1CCCCC1,1.0%&-1.0%,-1.5&-23.4,0.1%,-9.3%,-0.9&3.6,0.8
O=C(c1ccco1)N1CCN(C(=O)C2CC(c3ccccc3F)=NO2)CC1 (centres undefined),-1.1%,14.7,24.2%,-6.6%,-0.3,2.2
CN(C(=O)C1CCCN1S(=O)(=O)c1ccc(Cl)cc1)c1ccccc1 (centres undefined),1.1%,7.3,-2.1%,4.9%,-0.4,·

# Screens deposited in PubChem by National Center for Advancing Translational Sciences (NCATS).
